# VDR inhibitor = Inhibitors of the vitamin D receptor (VDR): qHTS. Vitamin D3 receptor (Homo sapiens), P11473. VDR-SRC2-3 peptide fluorescence polarization, 2 h. Potency, µM, for inactives: max response, negative = inhibition, actives largely listed as inhibitors. 0.93% of 400,000 active. AID 504847, 2011; active = well fitted inhibition curve with a large enough effect; inconclusive = small, poorly fitted or top-dose-only effect, or another doubt; inactive = no such curve, though single readings can be large or run the other way; also: series mostly up to about 120 µM
# Target sequence (P11473 whole entry, looked up): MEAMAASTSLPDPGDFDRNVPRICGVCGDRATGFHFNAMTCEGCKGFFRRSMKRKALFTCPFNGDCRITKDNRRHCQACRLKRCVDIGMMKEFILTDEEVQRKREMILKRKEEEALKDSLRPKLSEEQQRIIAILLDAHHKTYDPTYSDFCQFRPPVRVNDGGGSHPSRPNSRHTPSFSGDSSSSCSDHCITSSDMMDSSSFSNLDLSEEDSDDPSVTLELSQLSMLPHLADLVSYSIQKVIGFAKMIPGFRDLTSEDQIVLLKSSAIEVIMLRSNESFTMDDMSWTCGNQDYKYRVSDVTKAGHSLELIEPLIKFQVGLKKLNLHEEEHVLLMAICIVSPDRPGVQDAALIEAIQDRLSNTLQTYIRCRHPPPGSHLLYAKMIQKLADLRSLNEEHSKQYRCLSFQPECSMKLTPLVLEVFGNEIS
#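 Compounds are added to VDR with labelled SRC2-3 coactivator peptide and held 2 h at room temperature. Inhibition of the VDR–peptide interaction is then read as a change in fluorescence polarization.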
# Active calls of the source: *; ? = inconclusive; & = joins results of further samples. % is scaled to controls: 0 for no effect and ±100 for the full control effect; potency is read from the fitted curve at half-maximal effect.
Compound	VDR inhibitor
Cc1ccc(-c2cc(C(F)(F)F)c(C#N)c(SCC(=O)O)n2)cc1	-1.0%&-8.3%
O=C(Nc1ccn(Cc2ccccc2F)n1)c1ccc(COc2cc(Cl)ccc2Cl)o1	6.1%
O=C(Nc1nc2c(ccc3ccccc32)s1)c1ccco1	5.2%
CC1=C(C(=O)Nc2ccccc2)C(c2cccnc2)n2nc(-c3cccnc3)nc2N1 (stereo not given)	0.2%
COC(=O)Oc1cncc(C(=O)O)c1	0.5%
O=C1CCc2cc(S(=O)(=O)NC3CCCCC3)cc3c2N1CC3	9.3%
Cc1ccc(S(=O)(=O)N2CCN(C(=O)Cc3ccsc3)CC2)c(C)c1	-13.6%
COc1ccc(CNC(=O)c2cnn(-c3ccccc3)c2-n2cccc2)cc1OC	-5.2%
Cc1cc(C)cc(NC(=O)C2CCCN2S(=O)(=O)c2ccc3c(c2)C(C)(C)C(=O)N3C)c1 (stereo not given)	7.9%&-1.9%
Cc1ccc(OCCC(=O)O)cc1	16.5%
CC(=O)N1c2ccccc2NC2=C(C(=O)CCC2)C1c1ccc(F)cc1 (stereo not given)	5.8%
COc1ccc(/C=C/C(O)=C(\C#N)c2nnc(N3CCOCC3)n2-c2ccccc2)cc1OC	-13.7%

# Reprinted at random: 2 entries already listed, in no set order.
Compound	VDR inhibitor
CC1=C(C(=O)Nc2ccccc2)C(c2cccnc2)n2nc(-c3cccnc3)nc2N1 (stereo not given)	0.2%
O=C(Nc1ccn(Cc2ccccc2F)n1)c1ccc(COc2cc(Cl)ccc2Cl)o1	6.1%

# (continued)
Compound	VDR inhibitor
O=C(c1ccc(F)cc1)N1CCOCC1	3.8%
O=C(CCC(=O)c1ccc(Oc2ccccc2)cc1)Nc1cccc(Cl)c1	-27.8%
O=C(Cn1nnc(-c2ccccc2)n1)NNC(=O)c1ccc(Br)cc1	13.3%
COc1ccc(N(CC(=O)Nc2cc(C)ccc2C)S(=O)(=O)c2c(C)nn(C)c2C)cc1	-6.8%
O=C1CNC(=O)/C1=C/c1ccc(O)cc1	-8.0%
O=C(c1cccc(F)c1)N1CCC2(CC1)CCN(c1cccc(-c3ccccc3)c1)CC2	18.4%
CC1CCCCC1NC(=O)Cn1nnc2ccccc2c1=O (stereo not given)	-5.1%
Cc1ccc(/C=N/Nc2ccc(Cl)c(C(=O)O)c2)s1	-7.9%
CC(=O)C1=C(O)C(=O)N(c2ccc(C)cc2)C1c1ccc([N+](=O)[O-])cc1 (stereo not given)	-4.2%
Cc1ccc(OC(=O)CCC(=O)N2CCc3ccccc32)cc1	14.3%
Cc1ccc(C(=O)Nc2cc(C(C)C)c(O)c(C(C)C)c2)cc1	-3.8%
CC(=O)Nc1ccccc1C(=O)C(=O)Nc1cccc(C(=O)N2CC(C)CC(C)C2)c1 (stereo not given)	-20.4%

# Next entries:
Compound	VDR inhibitor
Cc1ccc2c(CC(=O)Nc3ccccc3C(F)(F)F)coc2c1C	17.5%
CC(NC(=O)C(=S)N1CCN(C)CC1)c1ccccc1 (stereo not given)	19.3%
COc1ccccc1N1CC(C)(C)C(=O)N(C(=O)c2c(F)cccc2Cl)C1=S	-6.0%
O=S(=O)(c1ccccc1)N1CCSC1c1ccco1 (stereo not given)	1.0%
CNC(=O)c1ccsc1NC(=O)CS(=O)(=O)c1ccccc1	-13.2%
CCN(C(=O)Cn1cnc2c1c(=O)n(C)c(=O)n2C)C1CCS(=O)(=O)C1 (stereo not given)	18.3%
Cc1ccc2c(c1)NCC(C(=O)NCc1ccccc1)O2 (stereo not given)	24.4%
O=C(CSc1nc2nn(-c3ccccc3)c(=O)c-2c2n1CCCCC2)c1ccc(O)c(O)c1	-10.2%
COc1cc(Cl)c(S(=O)(=O)N2CCOCC2)cc1Cl	-6.4%
O=C(NC1CCCc2c1cnn2-c1ccccc1F)c1ccccc1N1CCOCC1 (stereo not given)	-6.1%
N#Cc1ccccc1OCC(=O)OCC(=O)NCc1ccc2c(c1)OCO2	11.8%
O=C(CSc1ncc(-c2ccccc2)n1CC1CCCO1)N1CCCCC1 (stereo not given)	4.2%

# Gathered by group: the compounds so far with a COOH group (4)
Compound	VDR inhibitor
Cc1ccc(-c2cc(C(F)(F)F)c(C#N)c(SCC(=O)O)n2)cc1	-1.0%&-8.3%
COC(=O)Oc1cncc(C(=O)O)c1	0.5%
Cc1ccc(OCCC(=O)O)cc1	16.5%
Cc1ccc(/C=N/Nc2ccc(Cl)c(C(=O)O)c2)s1	-7.9%

# (cont.)
Compound	VDR inhibitor
Cc1ccc(C(=O)OCC(=O)NCc2ccc3c(c2)OCO3)cc1S(=O)(=O)N1CCOCC1	4.6%
CCS(=O)(=O)c1ncc(Cl)c(C(=O)Nc2c(C(=O)c3ccc(C)cc3)oc3ccccc23)n1	1.1%
CN(CC(=O)Nc1ccccc1C(F)(F)F)C(=O)Cn1c(=O)oc2ccccc21	-17.5%
Cc1nn(CC(=O)N2CCc3ccccc3C2)c(C)c1Cl	-20.4%
CCCCCCc1cc2cc(S(=O)(=O)c3ccc(F)c(Cl)c3)c(=O)oc2cc1O	-7.8%
O=C(CNC(=O)c1ccc(Br)o1)Nc1cccc(S(=O)(=O)N2CCOCC2)c1	13.0%
O=C(Cc1ccc2c(c1)OCCO2)N1CCN(S(=O)(=O)c2cccc(C(F)(F)F)c2)CC1	-11.7%
CN(C(=O)CSc1ncnc2sc3c(c12)CCC3)C1CCS(=O)(=O)C1 (stereo not given)	-7.3%
Cc1nnc(SCCC(=O)Nc2ccc(F)cc2)s1	-7.8%
COc1ccc(Cn2ccc(=O)c(Cc3c(Cl)cccc3Cl)c2C)cc1	-10.0%
CC(=O)NC1=NN(C(C)=O)C(C)(c2ccc(Cl)s2)S1 (stereo not given)	-6.8%
Cc1nc(-c2ccncc2)sc1C(=O)Nc1ccc(Br)cc1	0.3%

# Later entries
Compound	VDR inhibitor
COc1ccccc1-c1nc(-c2ccccn2)no1	4.5%
CCc1c(C)nc2nc(SCc3ccccc3Cl)[nH]n2c1=O	-10.7%
N#Cc1c2n(cnc1=O)CCCCC2	-4.9%
CC1CN(c2nn3c(=O)c4ccccc4nc3c3ccccc23)CC(C)O1 (stereo not given)	-2.7%
O=C1CCN(Cc2ccccc2)C(=O)N1c1ccccc1	-12.6%
CCOC(=O)/C(C#N)=N\Nc1ccc(S(=O)(=O)Nc2nc(C)cc(C)n2)cc1	14.0%
O=S(=O)(/C=C/c1ccccc1)Nc1ccc(N2CCOCC2)cc1	19.7%
Cc1cc(S(=O)(=O)Nc2cc3c(cc2Cl)n(C)c(=O)c(=O)n3C)ccc1F	-4.5%
Cc1nnn(-c2nonc2N)c1C(=O)N/N=C/c1cccc2ccccc12	-5.1%
C=CCn1c2ccccc2c2nnc(SC(CC)C(=O)Nc3sc4c(c3C#N)CCCC4)nc21 (stereo not given)	12.4%
COc1ccc(C2=Nn3c(nnc3-c3ccc(OC)cc3)SC2)cc1	8.3%
COc1cccc(Cl)c1NC(=O)N1CCc2c([nH]c3ccccc23)C1C(F)(F)F (stereo not given)	0.2%

# More records follow:
Compound	VDR inhibitor
CC(=O)c1cccc(CN2CCC(C(=O)Nc3ccc(-c4cccc(C)c4)cc3)CC2)c1	10.4%
CNc1oc(-c2ccccc2Cl)nc1P(=O)(c1ccccc1)c1ccccc1	-17.6%
Cc1ccc2ccc3ccc(C)nc3c2n1	7.6%
O=C(Nc1cccc(Cl)c1)N1CCN(C/C=C/c2ccccc2)CC1	-1.3%
C=CCn1c(SCC(=O)Nc2ccc(C(=O)O)cc2)nnc1-c1cccnc1	-8.7%
COCCNC(=O)c1oc2ccc3c(c2c1C)C(O)CC(C)(C)O3 (stereo not given)	-6.7%
O=C(COC(=O)CN1C(=O)c2ccccc2C1=O)Nc1ccccc1[N+](=O)[O-]	-3.3%
Cc1ccccc1NC(=O)NCc1ccco1	-5.3%
O=C(CSc1nnc(SCc2ccccc2)s1)N/N=C/c1ccc(Cl)cc1Cl	-18.3%
Oc1ccccc1C=NC1CCCCC1N=Cc1ccccc1O (stereo not given)	0.3%
O=C1NCCCC1C(=O)N/N=C/c1ccccc1[N+](=O)[O-] (stereo not given)	0.9%
COC(=O)c1cc(S(=O)(=O)NCC2CCN(CCc3cccs3)CC2)c[nH]1	2.1%

# Going on with the list:
Compound	VDR inhibitor
CCCCN(CC)CCNC(=O)C1CCN(S(=O)(=O)c2cccc3nsnc23)CC1	24.6%&6.0%
COc1ccc2nc(COC(=O)c3ccco3)c(C(C)=O)[n+]([O-])c2c1	1.4%
Nc1nc(CN2CCc3ccccc3C2)nc(Nc2ccccc2)n1	-11.2%
NC(=O)c1nc(-c2ccc(F)c(F)c2)nc2c1[nH]c(=O)n2-c1cccc(Cl)c1	11.9%
CCSc1nnc2c(n1)OC(c1ccc(OC)c(OC)c1)N(C(C)=O)c1ccccc1-2 (stereo not given)	8.9%
CCCCNC(=O)c1cccc(-n2cnc3cccnc32)c1C	11.1%
CCOC(=O)C1CCCN(C(=O)CCc2nc3sc4c(c3c(=O)[nH]2)CCCC4)C1 (stereo not given)	12.4%
COc1ccc(CCN2CC(C(=O)OCC(=O)N(C)Cc3ccccc3)CC2=O)cc1OC (stereo not given)	-10.4%
Cc1ccc(-n2c(C)nnc2SCC(=O)N(C)c2c(N)n(Cc3ccccc3)c(=O)[nH]c2=O)cc1	8.2%
CCOC(=O)c1sc(/N=C/Nc2nc(C)c(C(=O)OCC)s2)nc1C	27.0%
CC(=O)NC(Cc1ccc(O)cc1)C(=O)NN (stereo not given)	-18.9%
O=C(Nc1ccc2c(c1)C(=O)NC2=O)c1ccccc1Cl	-14.4%

# (list continues)
smiles	VDR inhibitor
C#CCOCCOCCOCCNc1nc(N2CCN(C(=O)[C@H]([C@@H](C)CC)n3cc([C@@H](N)CO)nn3)CC2)nc(N2CCN(C(=O)[C@H]([C@@H](C)CC)n3cc([C@@H](N)Cc4ccc(O)cc4)nn3)CC2)n1	0.9%
O=C1Nc2ccccc2OCc2c1cccc2[N+](=O)[O-]	2.5%
CC1=C(C(=O)N2CCOCC2)C(c2ccc(Br)cc2)NC(=S)N1c1ccccc1 (stereo not given)	?
CCOc1ccc(C(=O)N2CCN(c3ccccn3)CC2)cc1OCC	8.2%
CC(=O)N1CCc2c(sc(NC(=O)c3cccc(N4C(=O)CCC4=O)c3)c2C(N)=O)C1	?
CCCCCCCC1(C)NC(=O)N(CC(=O)Nc2cc(C)on2)C1=O (stereo not given)	7.4%
COc1ccc(-c2c(C(F)(F)F)nn(C)c2NC(=O)c2cccnc2)cc1	8.2%
COc1ccc(C=C(c2ccc(OC)cc2)c2ccc(OC)cc2)cc1	8.0%
N/C(=N\C(=S)Nc1ccccc1)c1ccccc1	0.6%
C#CC(CC)(CC)NC(=O)Nc1ccccc1C(=O)OC	6.5%

# Sorted by value in VDR inhibitor (low to high): some entries from above.
smiles	VDR inhibitor
N/C(=N\C(=S)Nc1ccccc1)c1ccccc1	0.6%
C#CCOCCOCCOCCNc1nc(N2CCN(C(=O)[C@H]([C@@H](C)CC)n3cc([C@@H](N)CO)nn3)CC2)nc(N2CCN(C(=O)[C@H]([C@@H](C)CC)n3cc([C@@H](N)Cc4ccc(O)cc4)nn3)CC2)n1	0.9%
C#CC(CC)(CC)NC(=O)Nc1ccccc1C(=O)OC	6.5%
CCCCCCCC1(C)NC(=O)N(CC(=O)Nc2cc(C)on2)C1=O (stereo not given)	7.4%
COc1ccc(-c2c(C(F)(F)F)nn(C)c2NC(=O)c2cccnc2)cc1	8.2%

# Other records:
smiles	VDR inhibitor
CCOc1ccccc1-c1nc(-c2ccc(-c3ccccc3)nc2OCC)no1	-0.7%
Nc1ccc(N(CCO)CCO)cc1	?
COC(=O)c1c(NC(=O)c2nn(C)cc2Cl)sc2c1CCCC2	5.6%
CCC1(CC)N=C(c2ccccc2)C(=S)N1	-5.8%
Cc1c(N(C)C(=O)c2ccco2)c(=O)n(-c2ccccc2)n1C	-26.8%
Cc1cccc(C(=O)NCCNC(=O)c2ccccn2)c1	4.2%
CC(=O)c1cccc(NC(=O)CCc2c(C)nc3nc(CN)nn3c2C)c1	0.4%
CCCCSc1nc(O)c(C2OC(=O)c3c2ccc(OC)c3OC)c(=O)n1-c1ccccc1 (stereo not given)	-0.9%
O=C(CN1C(=O)C2C3C=CC(C3)C2C1=O)N1CC=C(c2ccccc2)CC1 (stereo not given)	4.5%
Cc1cc(C(=O)C(=O)N(C)C)c(C)n1-c1ccc([N+](=O)[O-])cc1	6.8%

# Other structures
smiles	VDR inhibitor
Cc1ccc(S(=O)(=O)Nc2ccccc2C(=O)N2CCN(C)CC2)cc1	4.5%
CCCCn1c(N)c(N(CC(C)C)C(=O)CCC2CCCCC2)c(=O)[nH]c1=O	-8.3%
C=CCNC(=O)c1scc2c1CCCC2	-0.7%
COc1ccc(NC(=O)CSc2nnc(-c3ccncc3)o2)c([N+](=O)[O-])c1	-25.7%
Cc1cc(S(=O)(=O)Nc2ccc(C(=O)NCc3ccncc3)cc2)ccc1F	2.1%
COc1ccc(CCNC2CCc3ccccc3C2)cc1 (stereo not given)	-5.8%
Cc1ccccc1NC(=O)COc1coc(CN2CCCc3ccccc32)cc1=O	-14.8%
N=c1cc(C2(O)CCCCC2)n2c(nc3ccccc32)s1	2.0%
COc1ccc(CN2C(=O)CC(Cc3ccc(C)cc3)C2=O)cc1OC (stereo not given)	11.6%
CCOC(=O)c1sc(NC(=O)c2ccc(S(=O)(=O)N3CCCCCC3)cc2)nc1-c1ccccc1	-5.1%

# Next results:
smiles	VDR inhibitor
Cc1ccc(NC(=O)Nc2cccs2)c(Cl)c1	-19.0%
CCCN1C(=O)C2(OCCO2)c2cc(Cl)ccc21	12.0%
Cc1cn([C@H]2CC(F)[C@@H](CO)O2)c(=O)[nH]c1=O (stereo not given in full)	-2.1%
CCO[C@H]1OC(C(=O)N2CCN(Cc3ccc4c(c3)OCO4)CC2)=C[C@@H](c2ccc(Br)cc2)[C@@H]1CCCO	1.9%
COc1ccc(Nc2nc(N)c3ccccc3n2)c(OC)c1	-17.0%
COc1ccc(C)cc1-n1nnnc1SCc1cn2ccsc2n1	-6.8%
COc1ccc(/C=C2\SC(=S)N(CCC(=O)Nc3ccc(O)cc3)C2=O)cc1	-20.7%
Cc1nc2cnc(Nc3ccccc3)nc2n(C[C@H]2CCCO2)c1=O	4.7%

# This is a subset; the hit share may differ from the screen's.
